Assay outcomes from PubChem.
Cruzain inh Det – cruzain (T. cruzi) inhibition with detergent. AID 1478. Potency, µM, for the others: max response, negative = inhibition, actives largely listed as inhibitors. purified cruzain, Z-FR-AMC fluorescence, 0.01% Triton. actives 0.43% (n = 200,000); active = well fitted curve in the direction sought with a large enough effect; inconclusive = small, poorly fitted or top-dose-only effect, or another doubt; inactive = no such curve, though single readings can be large; an effect the other way counts as inactive or inconclusive;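 note: plate controls were neutral wells for no effect and buffer without enzyme for full effect; nearly all actives have a fitted effect of over 40% in size; top concentration of the series not given in the record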
Target sequence (P25779 123-467 limits assumed): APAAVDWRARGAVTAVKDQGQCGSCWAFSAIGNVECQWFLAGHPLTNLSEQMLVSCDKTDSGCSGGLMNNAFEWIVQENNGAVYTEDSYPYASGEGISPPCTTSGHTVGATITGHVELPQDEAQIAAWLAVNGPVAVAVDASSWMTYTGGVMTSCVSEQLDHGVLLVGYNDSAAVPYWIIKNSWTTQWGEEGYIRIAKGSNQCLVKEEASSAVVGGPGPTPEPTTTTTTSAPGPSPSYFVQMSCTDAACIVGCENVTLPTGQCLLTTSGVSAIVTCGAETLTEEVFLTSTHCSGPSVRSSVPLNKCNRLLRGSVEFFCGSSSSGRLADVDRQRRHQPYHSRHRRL
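Cruzain (1.5 nM) preincubated 15 min at RT with compound in 100 mM sodium acetate pH 5.5, 5 mM DTT, 0.01% Triton X-100. Reaction started with 2 uM Z-FR-AMC; AMC fluorescence (ex 360/em 450 nm) change over 60 s gave rate.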
MARV entry inh – Marburg virus entry inhibition | Marburg virus pseudotyped entry inhibition, cell reporter; control for the full effect not named in the record; about a third of the inactives were read at about 46 µM | Potency, µM (doses to about 37.8 µM), for inactives: top-dose activity change, negative = inhibition, usual class: inhibitors | actives 1.8% (n = 300,000) | AID 540276; active = well fitted inhibition curve with a large enough effect; inconclusive = small, poorly fitted or top-dose-only effect, or effect the other way; inactive = flat fitted curve, though single readings scatter; tested in HEK293 cells; about a fifth of its hits are not listed in these tables; note: % is set by controls: 0 for no effect and ±100 for the full control effect; luciferase read-out
StopGo reporter – FMDV 2A StopGo reporter, luciferase signal; human cells with a luciferase reporter of 2A StopGo recoding; control for the full effect not named in the record; Potency, µM (titrated, usually from 57.9 µM), for inactives: at the highest dose signal change, negative = less light; actives 1.2% (n = 410,000); AID 1159524; active = well fitted falling curve with a large enough effect; inconclusive = small, poorly fitted or top-dose-only effect; inactive = no such curve, though single readings can be large or run the other way; tested in HEK293T cells; note: % is set by controls: 0 for no effect and ±100 for the full control effect; nearly all actives have a fitted effect of over 45% in size; luciferase light after 4 h
RE007 growth inh – less growth of the S. pombe RE007 Vpr strain. S. pombe RE007 Vpr strain, BacTiter-Glo ATP luminescence, 24 h; control for the full effect not named in the record. Potency, µM (titrated, usually from 92.2 µM), for the others: at the highest dose activity change, negative = less growth. actives 0.21% (n = 360,000). AID 651644; active = well fitted falling curve with a large enough effect; inconclusive = small, poorly fitted or top-dose-only effect; inactive = no such curve, though single readings can be large or run the other way;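 note: % is set by controls: 0 for no effect and ±100 for the full control effect; nearly all actives have a fitted effect of over 50% in size; the assay follows cell death caused by Vpr and the record does not say whether a fall means rescue or toxicity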
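Fission yeast strain RE007, carrying one chromosomally integrated HIV-1 vpr copy, was seeded at OD 0.01 in PMG+AL medium with 23 nL pinned compound. After 24 h at 30 °C and 99% humidity, viability was read by BacTiter-Glo luminescence.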
Cruzain inh noDet – inhibitors of Trypanosoma cruzi cruzain without detergent. P25779. purified cruzain, Z-FR-AMC fluorescence, no detergent. Potency, µM, for inactives: max response, negative = inhibition, hits mostly inhibitors. actives 2.3% (n = 200,000). AID 1476; active = well fitted curve in the direction sought with a large enough effect; inconclusive = small, poorly fitted or top-dose-only effect, or another doubt; inactive = no such curve, though single readings can be large; an effect the other way counts as inactive or inconclusive;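 note: plate controls were enzyme without inhibitor for no effect and buffer without enzyme for full effect; nearly all actives have a fitted effect of over 40% in size; top concentration of the series not given in the record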
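Purified cruzain at 1.5 nM, pre-incubated 15 min with compound at room temperature in 100 mM sodium acetate pH 5.5, 5 mM DTT, 0.00005% Triton X-100. Reaction started with 2 uM Z-FR-AMC; AMC fluorescence increase over 60 s gives rate.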
LASV entry inh – blocks Lassa virus binding to or entry into cells; actives 1.2% (n = 300,000); Lassa virus pseudotype entry inhibition, cell reporter; control for the full effect not named in the record; Potency, µM (doses to about 37.9 µM), without a hit: at the top dose activity change, negative = inhibition, most hits filed as inhibitors; active means well fitted inhibition curve with a large enough effect; inconclusive means small, poorly fitted or top-dose-only effect, or effect the other way; inactive means flat fitted curve, though single readings scatter; tested in HEK293 cells; note: % is set by controls: 0 for no effect and ±100 for the full control effect; nearly all actives have a fitted effect of over 50% in size; luciferase read-out
SARS PLpro yeast – SARS-CoV PLP inhibition in yeast | S. cerevisiae expressing SARS-CoV PLpro, growth rescue; control for the full effect not named in the record | Potency, µM (highest dose often 32.9 µM), without a hit: at the highest dose activity, positive = growth rescue | actives 0.19% (n = 330,000) | AID 485353; note: 0% is about no effect; nearly all actives have a fitted effect of over 55% in size; growth read by luminescence after 48 h
NS1 inh – inhibitors of influenza NS1 protein function; Potency, µM (top dose mostly 46.1 µM), for the others: at the top dose activity, positive = more growth; actives 0.4% (n = 270,000); AID 2326; S. cerevisiae slowed by influenza A NS1, growth recovery by OD600; note: actives are rising curves; nearly all actives have a fitted effect of over 50% in size
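Recovery from NS1-induced slow growth read by OD600 in budding yeast switched to galactose assay medium (pH 6.0, -URA) at 1:100 dilution. Compound 23 nl per well; the matching strain lacking NS1 serves as control.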
* hit, by the source's call; ? = inconclusive; / = not tested or not shown; & = joins results of further samples; [ ] = dose if it differs, or a comment. Unless noted, calls come from the whole dose curve; as a rule, active means well fitted rising curve with a large enough effect; inconclusive means small, poorly fitted or top-dose-only effect; inactive means no such curve, though single readings can be large or run the other way. Potency is the fitted concentration of half-maximal effect.

structure | Cruzain inh Det | MARV entry inh | StopGo reporter | RE007 growth inh | Cruzain inh noDet | LASV entry inh | SARS PLpro yeast | NS1 inh
CC(=O)c1c(C)[nH]c(C(=O)CSc2nnc(C)s2)c1C | / | -1%[46.1 µM] | 33%[activator] | -12% | / | 10% | -2% | /
O=C(Nc1nc2ccccc2[nH]1)c1ccccc1O | / | / | 14% | 6% | / | / | -3% | 6%
CCOC(=O)N1CCN(C(=O)CCCN2C(=O)CSc3nc(C)cc(C)c32)CC1 | 3.2% | -3% | -25% | 19% | 11% | 4% | -1% | 1%
Cc1nc2ccc(N=NN(C)C)cc2[nH]1 | / | / | 14% | 19% | / | / | 0% | 3%
CCOc1ccc(C2/C(=C(/O)c3ccc(S(=O)(=O)N4CCCCC4)cc3)C(=O)C(=O)N2CCCOC)cc1OC (configuration not stated) | / | -2% | -20% | -3% | / | 9% | -3% | 10%
COc1ccc(N(C)C(=O)c2oc(=O)c3ccccc3c2-c2ccccc2)c(OC)c1 | / | / | -20% | -19% | / | / | 0% | -9%
CC(C)C(NC(=O)CSCc1ccc([N+](=O)[O-])cc1)C(C)C | 2.7% | ? | -11% | -14% | -7% | 0% | -1% | -15%
CCc1cccc(NC(=O)CCCCCC2NC(=O)NC2C)c1 (configuration not stated) | / | -2%[46.1 µM] | -15% | 0% | / | 18% | -1% | /
O=c1[nH]c(Cc2ccccn2)nc2scc(-c3ccccc3Cl)c12 | / | 8%[46.1 µM] | -23% | -13% | / | -1%[46.1 µM] | 1% | 1%
CC(C)C(=O)Nc1nnc(S(=O)(=O)N(C)c2ccc(Cl)cc2)s1 | / | 1% | -4% | 3% | / | -25% | -3% | 4%
Cc1cccc(C)c1OCCCCN1CCNCC1 | / | ? | -18% | -4% | / | -12%[46.1 µM] | -4% | 27%
COc1ccc(OC)c(NC(=O)CSc2nnc(CNc3ccc(C)cc3C)o2)c1 | -5.4% | 4% | -4% | 8% | 9% | -8% | 1% | -15%
COC(=O)c1ccc(NC(=O)c2cc3c(CO)cnc(C)c3oc2=Nc2cccc(C(N)=O)c2)cc1 | / | 2% | 3% | 6% | / | 17% | 2% | 0%
Cc1ccc(C)c(CSc2ccc3nnc(CCNS(=O)(=O)c4ccccc4)n3n2)c1 | -6.9% | / | -16% | / | ? | -17%[46.1 µM] | / | /
Cc1ccc(CN(C(=O)COc2ccc(Cl)c(C)c2)c2ccccn2)o1 | -9.2% | ? | 42%[activator] | / | -5% | 10%[46.1 µM] | / | /
COc1ccc(C2=NN(CC(=O)NCc3ccco3)C(=O)CC2)cc1 | -3.2% | 14% | -16% | -4% | -12% | -13% | 9% | 4%
CC(Sc1nnc(Nc2ccccc2)s1)C(=O)NC1CCCc2ccccc21 (configuration not stated) | -10% | ? | -11% | 7% | -12% | -26% | -7% | 12%
Cc1ccc(-c2c(C(=O)NCc3ccc(F)cc3)oc(=O)c3ccccc23)cc1 | -8.3%&-9.3% | 11%[46.1 µM] | -13%&-10% | 2% | 3%&-3% | 14%[46.1 µM] | 27% | 0%
CN(C)c1ccc(NC(=O)COC(=O)CCC(=O)c2ccc(F)cc2)cc1 | -6.6% | -3% | -22% | -6% | -8% | 9% | -12% | -19%
COc1ccc(-c2nc(-c3ccccc3)c(Nc3ccc4ccccc4c3)o2)cc1 | 1.7% | ? | / | / | -24% | ? | / | /
CCCCN(C)C(=O)C1CCN(CCCc2ccccc2)CC1 | 8.4% | -25% | -17% | -6% | 3% | 0% | 11% | 6%
Cc1ccc(-c2nc3ccccc3n3nnnc23)cc1 | -0.9% | ? | 22% | -21% | ? | 5% | 0% | -9%
CC(C)c1ccc(O)c(NC(=O)c2cccnc2)c1 | -1.4% | 2% | 36%[activator] | -8% | 1% | 4% | -8% | -8%
Cc1ccc(C)c(NC(=O)CSc2nnc(Cc3cccn3C)n2-c2ccc(F)cc2)c1 | -1.6% | ? | -6% | -1% | 12% | -20% | -9% | 6%
COc1ccccc1C1NC(=O)NC(C)=C1C(=O)OC1CCC(C)CC1 (configuration not stated) | / | / | -19% | -15% | / | / | -6% | 17%

Brought forward from above: 5 entries, followed by the next part.
structure | Cruzain inh Det | MARV entry inh | StopGo reporter | RE007 growth inh | Cruzain inh noDet | LASV entry inh | SARS PLpro yeast | NS1 inh
CCCCN(C)C(=O)C1CCN(CCCc2ccccc2)CC1 | 8.4% | -25% | -17% | -6% | 3% | 0% | 11% | 6%
Cc1ccc(-c2nc3ccccc3n3nnnc23)cc1 | -0.9% | ? | 22% | -21% | ? | 5% | 0% | -9%
CC(C)c1ccc(O)c(NC(=O)c2cccnc2)c1 | -1.4% | 2% | 36%[activator] | -8% | 1% | 4% | -8% | -8%
Cc1ccc(C)c(NC(=O)CSc2nnc(Cc3cccn3C)n2-c2ccc(F)cc2)c1 | -1.6% | ? | -6% | -1% | 12% | -20% | -9% | 6%
COc1ccccc1C1NC(=O)NC(C)=C1C(=O)OC1CCC(C)CC1 (configuration not stated) | / | / | -19% | -15% | / | / | -6% | 17%
Cc1ccccc1Cn1c2ccccc2c2cnn(CC(=O)NCCCN3CCOCC3)c(=O)c21 | / | ? | -10% | -6% | / | 27%[46.1 µM] | -3% | 7%
COc1cc(OC)nc(-n2ncc(Br)c(Br)c2=O)n1 | -1.1% | 1.6µM* | 10µM* | -13% | -5% | 1.3µM* | -57% | -36%
COc1ccc(N2C(=O)CC(C)(C)CC2=O)cc1OC | / | / | 9% | 3% | / | / | 0% | -1%
Cc1ccc(Nc2nc3nonc3nc2Nc2cccc(C(F)(F)F)c2)cc1Cl | -1.4% | ? | ? | / | -11% | ? | / | /
O=C(Cn1c(=O)nc(-c2ccccc2)c2ccccc21)Nc1ccc(Cl)cc1F | -2.6% | 2%[46.1 µM] | -11% | / | -9% | 7%[46.1 µM] | / | /
Cc1ccc(CN(C(=O)c2ccccc2[N+](=O)[O-])C2CCS(=O)(=O)C2)o1 (configuration not stated) | / | / | 8% | 3% | / | / | -3% | -8%
Cn1c(/C(C#N)=C(\O)c2cccc(F)c2)nc2ccccc21 | / | 15% | 36%[activator] | 10% | / | ? | / | -8%
CCOC(=O)C1=C(c2ccccc2)NC(SCC(=O)Nc2ccccc2C)=C(C#N)C1c1ccco1 (configuration not stated) | -8.3% | 23µM* | -27% | 8% | -27% | ? | 0% | 11µM*
COc1ccc(C2(C#N)CCC(=O)N2c2ccccc2)cc1 (configuration not stated) | / | 17%[46.1 µM] | -27% | 13% | / | ? | 0% | 1%
C=CCNC(=O)C(=O)c1c(-c2ccccc2)[nH]c2ccccc12 | -3.1% | -3% | -3% | -5% | -5% | -25% | 21% | -1%
COc1ccccc1CNC(=O)C1CCN(Cc2cc3ccccc3n2Cc2cccc(C)c2)CC1 | -3.4% | / | -3% | / | -13% | ? | / | /
COc1ccc(C(=O)NC2CCN(C(=O)Nc3ccccc3Cl)CC2)cc1 | / | -12%[46.1 µM] | -15% | 18% | / | 0% | -1% | /
O=C(CC1C(=O)NCCN1C(=O)c1ccc([N+](=O)[O-])cc1)Nc1ccc(F)cc1 (configuration not stated) | / | 3%[46.1 µM] | -16% | -1% | / | 10%[46.1 µM] | 0% | 1%
C/C(=N\N1CCN(C)CC1)c1c(O)[nH]c(=O)[nH]c1=O | -1.9% | ? | -11% | 7% | 2% | 2% | 9% | 8%
COc1ccccc1/C=C/C1C(C(=O)OCC(C)C)=C(C)N=C2SCCC(=O)N21 (configuration not stated) | / | ? | -15% | 4% | / | / | -2% | /
CCOC(=O)C1=C(C)c2ccccc2N(S(=O)(=O)C(F)(F)F)C1C(=O)OCC (configuration not stated) | 0.8% | / | 6% | -21% | 0% | / | -14% | /
CCN1CCN(S(=O)(=O)c2ccc(F)c(C(=O)Nc3c(F)cc(F)cc3Br)c2)CC1 | / | / | -20% | 6% | / | / | -1% | -1%
CCN(CC)CCNC(=O)CSc1nc2nc(C)c(Cc3ccccc3)c(C)n2n1 | -1.2% | ? | -8% | / | -1% | 7%[46.1 µM] | / | /
N#Cc1cccc(NC(=O)CN2CCCCCC2)c1 | / | -4%[46.1 µM] | 7% | -15% | / | 19% | 1% | 7%
CCCN1CCN(C(=O)c2oc3c(Cl)cccc3c2C)CC1 | / | 14%[46.1 µM] | 0% | -8% | / | / | 0% | 9%
CC(=O)Nc1ccc(S(=O)(=O)N2CCC(C(=O)NCCC(=O)Nc3ccccc3)CC2)cc1 | / | 15%[46.1 µM] | -5% | -2% | / | 7%[46.1 µM] | 0% | -3%
COC(=O)Cn1nnc2c(cnn2-c2ccccc2)c1=O | / | 1% | 55%[activator] | 41% | / | -16% | 0% | 0%
O=C(CSc1ccc(-c2ccccn2)nn1)Nc1ccc(F)cc1F | 0.4% | -10%&-10%[46.1 µM] | -24%&-10% | -2% | 4% | -1%&-15%[46.1 µM] | 1% | -8%
CCOc1ccc(S(=O)(=O)N(CC(=O)Nc2ccc(OC)cc2OC)c2ccccc2)cc1 | 0.7% | 0%[46.1 µM] | -16% | / | 5% | ? | / | /
Cc1ccc(/C=C/C(=O)Nc2ccc(Oc3ccccc3)cc2)o1 | -9.3% | ? | -4% | -9% | -10% | -17% | -69% | -8%
